B2AR ag: human beta-2 adrenergic receptor agonism by FAP | actives 0.43% (n = 340,000) | P07550 | Am2.2-beta2AR cells, FAP receptor internalization, flow cytometry; reference of the scale not given here | response, % (test concentration not listed);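 active = response above a set limit, near 3 SD of response in nonfluorescent compounds, cut at about 42% in these data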;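 note: stock transfer was 100 nL into about 11 µL; a reference agonist was the positive control; negative values mostly stem from fluorescent compounds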
Target sequence (P07550 whole entry, looked up): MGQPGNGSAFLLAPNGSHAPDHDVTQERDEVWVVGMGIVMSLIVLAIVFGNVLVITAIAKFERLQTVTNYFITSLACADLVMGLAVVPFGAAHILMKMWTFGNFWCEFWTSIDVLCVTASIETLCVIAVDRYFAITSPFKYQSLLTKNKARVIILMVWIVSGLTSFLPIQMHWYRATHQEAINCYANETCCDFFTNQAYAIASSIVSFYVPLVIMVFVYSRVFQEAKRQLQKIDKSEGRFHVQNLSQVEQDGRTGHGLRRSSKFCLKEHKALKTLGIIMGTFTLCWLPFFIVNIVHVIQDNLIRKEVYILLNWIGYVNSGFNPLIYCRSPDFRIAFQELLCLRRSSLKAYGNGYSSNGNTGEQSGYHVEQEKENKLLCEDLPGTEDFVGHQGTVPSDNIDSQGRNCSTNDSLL
ALR H2O2 inh: inhibitors of human sulfhydryl oxidase ALR. actives 3.8% (n = 290,000). purified ALR, DTT oxidation, H2O2 HRP-luminol luminescence. inhibition, % (test concentration not listed);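 active = mean and each replicate at 75% or more; inconclusive = only one of the two met; inactive = neither met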;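 note: stock transfer was 7.5 nL into about 7.5 µL; 0% = neutral wells and 100% = wells with inactivated enzyme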
Target sequence (P55789 whole entry, looked up): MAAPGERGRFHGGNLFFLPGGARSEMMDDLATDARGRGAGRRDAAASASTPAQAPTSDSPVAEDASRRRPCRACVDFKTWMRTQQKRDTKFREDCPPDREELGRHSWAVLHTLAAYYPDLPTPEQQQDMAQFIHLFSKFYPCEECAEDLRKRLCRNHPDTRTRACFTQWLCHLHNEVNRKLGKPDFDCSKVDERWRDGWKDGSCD
RanGTP-Impb inh: disruptors of Ran-importin-beta complex formation – biochemical, FRET, CFP-Ran, YFP-importin-beta, homogeneous, primary screen | cell-free CFP-Ran/YFP-importin-beta FRET ratio | inhibition, % (concentration not given with the values) | actives 1.1% (n = 300,000) | AID 2216;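 active = most replicates above 15%; inconclusive = exactly half above 15%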;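 note: 0% = DMSO wells and 100% = Ran loaded with GDP instead of GTP; wells of about 40 µL received 100 nL stock; the first replicate is given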
Vif TR-FRET: inhibitors of Vif binding to APOBEC3G peptide, primary screen, biochemical, TR-FRET, GST-Vif 1-94, biotin-A3G peptide, dose response retest (AID 1117319). actives 0.57% (n = 260,000). inhibition, %; hits with a dose series show IC50 in µM. TR-FRET GST-Vif / biotin-A3G peptide binding; higher % means a stronger effect; test concentration not given here; strong numbers were not always called active;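 active = above the screen mean plus three standard deviations and confirmed in dose response; inconclusive = results disagree or hit not tested in dose response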;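 note: Vif residues 1-94 fused to GST binding biotinylated APOBEC3G peptide 110-148; 0% = full assay without inhibitor and 100% = GST in place of GST-Vif; retest series ran down from 100 µM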
Calb FLC: C. albicans growth modulation with fluconazole; C. albicans CaCi-2 (fluconazole-resistant clinical isolate) + fluconazole, Alamar Blue growth, 48 h; growth inhibition, % (concentration not given with the values); actives 0.57% (n = 300,000); AID 1979;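 active = most replicates above 75%; inconclusive = exactly half above 75%; inactive = most below 75%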;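 note: all wells also contain fluconazole at 8 µg/ml as a sub-toxic cotreatment; 0% = median of DMSO wells and 100% = median of geldanamycin control wells; wells of about 8 µL received 7.5 nL stock; the first replicate is given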
LANA-H2A inh: blocks KSHV LANA binding to histone H2A/H2B. Q9QR71. cell-free LANA-H2A/H2B peptide, fluorescence polarization. inhibition, % (concentration not given with the values). actives 0.6% (n = 320,000). AID 2629; in the data active = inhibition mostly above about 10%, no sharp cut-off; inactive = mostly below about 6.7%;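 note: stock transfer was 7.5 nL into about 10 µL; 0% = median of vehicle wells and 100% = median of positive control wells; one replicate is shown; the record names a cut of 25% in any replicate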
HNF4A DNA FP: change in binding of human HNF4 alpha to DNA; P41235; HNF4a-FITC DNA binding, fluorescence polarization, 1 h; activity change, % at 10 µM; actives 0.3% (n = 360,000); AID 1224865; in the data active = activity change above about 30%, passing the limit was not always enough;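 note: controls were the assay level and a saturating level of protein; the project sought stronger binding though the title names inhibitors; some compounds called inactive have numbers as strong as hits; positive values seem to mean higher polarization but the record does not say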
Target sequence (P41235 whole entry, looked up): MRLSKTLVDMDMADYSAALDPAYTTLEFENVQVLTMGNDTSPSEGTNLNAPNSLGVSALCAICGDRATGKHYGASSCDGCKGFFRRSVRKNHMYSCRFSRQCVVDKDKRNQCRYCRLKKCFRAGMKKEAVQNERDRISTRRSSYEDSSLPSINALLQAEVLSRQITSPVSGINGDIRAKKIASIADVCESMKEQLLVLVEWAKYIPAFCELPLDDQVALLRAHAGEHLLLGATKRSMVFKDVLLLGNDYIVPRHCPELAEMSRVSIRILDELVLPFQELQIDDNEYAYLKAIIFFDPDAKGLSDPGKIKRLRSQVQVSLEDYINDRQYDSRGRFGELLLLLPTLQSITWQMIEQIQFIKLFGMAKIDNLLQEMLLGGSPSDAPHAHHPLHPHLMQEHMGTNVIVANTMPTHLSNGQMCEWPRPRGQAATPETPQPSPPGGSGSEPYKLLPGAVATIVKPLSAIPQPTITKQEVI
The depositor's hits bear a star; ? = inconclusive; . = not tested or not shown; & = joins results of further samples. Hits appear at their usual frequency; about 6.3% have a hit in one of these screens.

SMILES	B2AR ag	ALR H2O2 inh	RanGTP-Impb inh	Vif TR-FRET	Calb FLC	LANA-H2A inh	HNF4A DNA FP
Cc1ccc(OCCn2c(=O)n(C)c3ccccc32)cc1	-10	-5	-2.3	.	?	3.0	3.4
Nc1nc(N)c(N=Nc2ccc(Cl)cc2)c(=O)[nH]1	0	12	-2.8	3%	-10	-0.9	2.8
Cc1ccc2c(c1)C(=O)C(=O)N2Cc1ccccc1	1	-4	.	.	.	4.2	-2.9
CCOc1cc(C)ccc1OCc1nnc(SCC(=O)Nc2cccc(C(=O)O)c2)n1-c1ccccc1	16	12	-2.8	2%	3	2.6	1.1
COc1ccc(NC(=O)c2ccc(-c3ccc(C(C)=O)cc3)o2)cn1	5	-4	.	-7%	.	3.7	-13
COc1ccc(C2c3c(oc4ccccc4c3=O)C(=O)N2CC2CCCO2)cc1 (centres undefined)	-2	-5	5.6	-2%	.	1.4	8.0
COc1ccccc1N(CC(=O)NCc1ccco1)C(=O)CCC(=O)Nc1ccccn1	-9	.	-0.2	.	9	-2.2	0.6
Cc1ccc(C(=O)/C=C/c2c(C)nn(-c3ccccc3)c2Cl)cc1	8	.	3.1	-1%	16	.	-4.8
CCCc1cc(=O)oc2cc(OCC(=O)NCCCN3CCOCC3)c(Cl)cc12	-8	1	-2.2	.	-3	1.0	3.2
CCCCc1ccc(-c2csc(/C(C#N)=C\c3ccco3)n2)cc1	10	84*	7.8	-6%	19	4.2	4.1
O=C(Nc1ccccc1-c1nc2ccccc2[nH]c1=O)c1cccs1	-8	1	-0.7	.	3	3.4	0.3
COc1ccccc1/C=N/NC(=O)CCn1cnc2ccccc21	3	-4	3.6	.	-4	-2.9	5.6
CC(C(=O)NCCS(=O)(=O)c1ccc(Cl)cc1)S(=O)(=O)c1ccc(Cl)cc1 (centres undefined)	10	-4	3.4	-5%	-8	2.0	-0.9
CN=c1scc(-c2ccc([N+](=O)[O-])cc2)n1/N=C/c1ccco1	2	12	2.0	.	-10	1.3	1.3
CC(=O)Nc1ccc(CN2CCCC(CO)(Cc3cccc(Cl)c3)C2)cc1 (centres undefined)	3	.	-3.2	17%	-6	3.4	3.0
Cc1cc(NC(=O)/C=C/c2ccc(F)cc2)n(-c2nc3ccccc3[nH]2)n1	-15	18	-2.2	.	?	-3.6	-2.8
COc1ccccc1Oc1cn[nH]c1-c1ccc(OCC(=O)NN)cc1O	1	.	-1.1	-12%	3	-1.6	1.1
O=C(NC1CCCC1)C(c1ccccc1F)N(C(=O)c1csnn1)c1ccccc1 (centres undefined)	-4	.	-0.1	.	2	.	-2.2
O=C(CCl)NCCNC(=O)c1cc(OCC(F)(F)F)ccc1OCC(F)(F)F	-10	-5	3.3	-1%	-19	-0.8	2.7
CCCCn1c(N)c(N(CC(C)C)C(=O)CC(NC(=O)c2ccccc2)c2ccccc2)c(=O)[nH]c1=O (centres undefined)	1	1	-1.9	-1%	-1	2.9	-1.1
COC(=O)c1cc(C(=O)OC)n(Cc2ccc(F)cc2)c1C	2	22	1.6	4%	6	0.6	-4.9
COC(=O)Cn1c(=NC(=O)c2ccc(Cl)s2)sc2cc(F)ccc21	-2	-2	0.1	.	16	-2.5	3.9
Cc1cccc(-c2c(NC(=O)c3ccco3)oc3c(C)cccc3c2=O)c1	-1	-4	0.0	-7%	19	0.5	-3.2
Nc1nc(NCc2ccccc2)nc(NCc2ccccc2)c1[N+](=O)[O-]	-9	1	2.4	4%	4	-3.7	-4.0
COc1ccc(N2CCN(C(=O)C3CCCN3S(=O)(=O)c3cccc4nsnc34)CC2)cc1 (centres undefined)	3	62	0.2	.	7	-1.1	1.1
O=C(NCCc1ccccc1)c1noc2c1CCc1ccccc1-2	0	-5	2.4	1%	-1	-10	2.5
CC(C)(C)C1CCc2sc(C(=O)NNC(=O)CCl)cc2C1 (centres undefined)	6	.	-1.7	-2%	3	.	0.2
O=C(CN1CCCCC1)N/N=C/c1ccc(Cl)cc1	-2	-22	2.5	-9%	-4	-9.7	1.9
CC(=O)c1cccc(N(CC(=O)N2CCOCC2)S(C)(=O)=O)c1	-4	-2	-0.5	-6%	-3	-2.5	1.7
COc1ccc(N2C(=O)C(Cl)=C(N3CCN(Cc4ccccc4)CC3)C2=O)cc1	-4	.	4.4	1%&1%	4	.	-0.2
O=C(NCc1cccnc1)c1cc(-c2ccccc2)on1	-5	-4	-2.7	0%	5	-3.2	-1.2
COc1ccc(C2=NN(C(=O)c3cccs3)C(O)(C(F)(F)F)C2)cc1 (centres undefined)	19	0	-1.6	-4%	-3	4.9	1.2
CCN(Cc1ccccc1)C(=O)Cn1cc2c(n1)CCCC2	10	2	1.4	4%	-1	2.3	2.1
Cc1cccc(OCC(O)CN2C(C)(C)CC(O)CC2(C)C)c1 (centres undefined)	13	-1	-3.7	0%	-1	2.2	-1.1
Cc1cccc(NS(=O)(=O)c2cc3c4c(c2)C(C)C(=O)N4CCC3)c1 (centres undefined)	-15	-4	-1.5	5%	-12	1.2	-1.1
CCOc1ccc(S(=O)(=O)NCCC(=O)NCCc2ccc(C(C)C)cc2)cc1	3	-20	0.6	-8%	8	0.1	0.7
Cc1cc(C)c2[nH]c(=O)c(=O)[nH]c2c1	-6	-5	-0.8	21%	-6	1.7	1.8
Cc1ccccc1Oc1cc(-n2ncc(Cl)c(Cl)c2=O)ncn1	26	97*	.	-73%	.	5.1	1.2
CCC(=O)Nc1ccc(C(=O)N/N=C/c2cc(Br)c(OC)cc2OC)cc1	-10	-6	4.1	-7%	-2	3.6	3.5
COc1ccc(-c2noc(COc3ccc4c(c3)OCO4)n2)cc1	12	-4	2.5	-18%	1	1.6	-1.0
CC(C)(C)NC(=O)Cn1c(=O)n(CC(=O)NC(C)(C)C)c2ccccc21	4	-4	0.3	4%	-1	-3.9	-4.0
CN(C(=O)CSc1nc(C2CC2)nc2ccccc12)c1nc(-c2ccccc2)cs1	-5	99*	2.0	17%	-5	1.7	2.1
CCN(CC)CCNC(=O)c1c(O)c2cccc3c2n(c1=O)CCC3	-3	.	1.7	0%	3	.	3.1
Cc1ccc2c(CC(=O)N3CCOCC3)coc2c1	6	-3	-2.9	.	-1	-1.3	4.7
O=C(Cn1nnc(-c2ccccc2)n1)N/N=C/c1cccc([N+](=O)[O-])c1O	3	7	-3.4	-9%	-3	-0.2	0.0
COc1cc(/C=N/NC(=O)c2cc(-c3ccccc3)nc3ccccc23)cc(OC)c1O	6	34	-0.5	-2%	4	0.7	1.4
CCc1cc(-c2n[nH]c(C)c2Oc2ccc(C(C)C)cc2)c(O)cc1O	1	14	0.7	12%	47	-3.3	-1.5
Cn1c(C2CCCCC2)nc2ccccc21	-12	-1	-0.9	10%	6	1.3	-3.7
COC(=O)c1ccc(-c2nc3cc(Cl)c(N)cc3s2)cc1	7	-52	-5.0	20%	1	2.2	-0.1
CC(C(=O)OCC(=O)Nc1cccc(S(=O)(=O)N2CCOCC2)c1)N1C(=O)c2ccccc2C1=O (centres undefined)	1	.	-5.0	-7%	-12	-4.2	-3.4
The results go on:
SMILES	B2AR ag	ALR H2O2 inh	RanGTP-Impb inh	Vif TR-FRET	Calb FLC	LANA-H2A inh	HNF4A DNA FP
CC(C)(C)c1ccc(Oc2cccc(C3CC(=O)C(C4NCCc5ccccc54)C(=O)C3n3cncn3)c2)cc1 (centres undefined)	1	2	7.3	0%	-6	-0.5	3.5
Cc1ccc(C(c2cc(Cl)c3cccnc3c2O)N2CCN(C)CC2)cc1 (centres undefined)	16	-12	0.3	.	88*	-0.8	2.1
O=C(Cn1cc(C(=O)c2ccco2)c2ccccc21)Nc1ccccc1	-3	-30	1.6	-4%	3	-4.3	-0.5
COc1cc(CN(C)Cc2ccccc2)cc(OC)c1O	2	-6	4.5	15%	0	-2.0	3.1
CN(Cc1nc2ccccc2c(=O)[nH]1)C(=O)c1cc(C2CC2)nn1-c1ccccc1	0	18	.	-7%	.	1.2	1.9
O=C(O)CCCC(=O)Nc1ccc(Oc2ncnc3cc(Cl)ccc23)nc1	-9	-7	-1.2	-6%	-3	1.2	0.7
CN(C)c1ccc(-c2sc(Nc3ccccc3)n[n+]2-c2ccc(F)cc2)cc1	-566	2	-0.6	.	-14	-19	69*
COc1ccccc1NCC(=O)c1ccc(C)c(C)c1	9	-8	-0.9	-5%	-7	-0.4	5.1
Clc1cccc(Cn2ncc3ccccc32)c1	-4	-3	-3.2	-9%	1	0.1	3.6
Cc1c(NC(=S)NC(NC(=O)C(C)(C)C)C(Cl)(Cl)Cl)c(=O)n(-c2ccccc2)n1C (centres undefined)	1	0	1.0	22%	1	-1.7	-3.2

Given as labelled records: 4 of the compounds above.
COc1ccccc1NCC(=O)c1ccc(C)c(C)c1
  B2AR ag: 9
  ALR H2O2 inh: -8
  RanGTP-Impb inh: -0.9
  Vif TR-FRET: -5%
  Calb FLC: -7
  LANA-H2A inh: -0.4
  HNF4A DNA FP: 5.1

CCOc1ccc(S(=O)(=O)NCCC(=O)NCCc2ccc(C(C)C)cc2)cc1
  B2AR ag: 3
  ALR H2O2 inh: -20
  RanGTP-Impb inh: 0.6
  Vif TR-FRET: -8%
  Calb FLC: 8
  LANA-H2A inh: 0.1
  HNF4A DNA FP: 0.7

Cc1cccc(-c2c(NC(=O)c3ccco3)oc3c(C)cccc3c2=O)c1
  B2AR ag: -1
  ALR H2O2 inh: -4
  RanGTP-Impb inh: 0.0
  Vif TR-FRET: -7%
  Calb FLC: 19
  LANA-H2A inh: 0.5
  HNF4A DNA FP: -3.2

COC(=O)c1ccc(-c2nc3cc(Cl)c(N)cc3s2)cc1
  B2AR ag: 7
  ALR H2O2 inh: -52
  RanGTP-Impb inh: -5.0
  Vif TR-FRET: 20%
  Calb FLC: 1
  LANA-H2A inh: 2.2
  HNF4A DNA FP: -0.1

Additional results follow.
SMILES	B2AR ag	ALR H2O2 inh	RanGTP-Impb inh	Vif TR-FRET	Calb FLC	LANA-H2A inh	HNF4A DNA FP
COCCNC(=O)/C(C#N)=C/c1ccc(OCc2ccccc2)cc1	-4	-1	?	14%	-6	-0.5	0.2
CCOC(=O)CN[C@H]1CCC2C3CC=C4C[C@@H](O)CC[C@]4(C)C3CC[C@@]21C (some centres undefined)	6	-1	.	-4%	.	1.0	-2.7
Cc1occc1C(=O)NNS(=O)(=O)c1ccc(Cl)cc1	2	29	2.5	-2%	-2	-0.2	1.0
O=C(c1cnc(-c2ccc(Cl)cc2)s1)c1ccc(Cl)cc1Cl	-22	1	0.5	4%	1	-6.2	1.0
Fc1cccc(NC(=S)NCc2cccnc2)c1	-3	.	1.3	7%	-4	5.1	-2.2
COc1ccc2c(C)cc(N3CCN(c4ccc(F)cc4)CC3)nc2c1	17	0	?	-9%	-25	-1.1	-1.5
CN(C)[C@@H]1C(=O)C(C(N)=O)=C(O)[C@@]2(O)C(=O)C3=C(O)c4c(O)ccc(Cl)c4[C@@H](O)[C@H]3C[C@@H]12	4	16	.	.	.	4.3&10	-13
CCN(CC)C(=O)CSc1nnc(-c2ccccc2)n1-c1ccccc1	-5	-2	-3.3	33%	0	-0.2	-1.5
COc1cc(OC)c(NC(=O)Cc2ccc(OC)c(S(=O)(=O)N3CCOCC3)c2)cc1Cl	4	-13	-1.4	.	2	-2.7	-1.1
Oc1c(Br)cc(CNC2CCCCC2)cc1Br	12	.	.	4%	.	.	2.9
O=C(N/N=C/c1ccc2c(c1)OCO2)c1ccn(Cc2ccc(Cl)cc2)n1	-5	-8	.	0%	-6	3.8	-1.2
CS(=O)(=O)NCCSc1cc(C(F)(F)F)nc2ccccc12	0	20	?	-17%	1	-4.1	-2.1

High-throughput results deposited in PubChem BioAssay by several laboratories.
